# Source: PubChem BioAssay (several laboratories)
# CSC inhib – cancer stem cell viability inhibitors, primary screen, luminescence. cancer stem cell-like cells viability. inhibition, % at 7.5 µM. hit rate 1.1% among 300,000;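 active = mean at 75% or more and at least half the replicates too; tested in HMLE shEcad cells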;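 note: 0% = median of negative and 100% = median of positive control wells; the first replicate is given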
# eIF4H inh – human eIF4H binding inhibitors, primary screen, translation initiation inhibitor project, biochemical, uHTS, fluorescence polarization | inhibition, % at 35 µM | hit rate 0.94% among 290,000 | eIF4H fluorescence polarization binding assay | Eukaryotic translation initiation factor 4H (Homo sapiens), Q15056;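 active = 50% or more with normal probe brightness, or confirmed in later tests; about a fifth of its hits are not listed in these tables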;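 note: calls also rest on retests at 20 µM and on dose response follow-up; 0% = protein and probe with vehicle and 100% = probe without protein; strong numbers were not always called active; many hits fall short of the cut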
# MT1-MMP act inh – blockers of MT1-MMP proenzyme processing, primary screen, HT1080 RFP-PRO-GFP cells, GFP/RFP fluorescence | GFP/RFP ratio fluorescence, overnight; percent of plate control window, DMSO zero | GFP/RFP ratio change, % at 20 µM | hit rate 0.061% among 360,000 | Matrix metalloproteinase-14 (Homo sapiens), P50281;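 active = GFP/RFP ratio change of at least 30% with cell ATP level not reduced by more than half and red fluorescence within 50% of control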; note: strong numbers were not always called active
#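 Assay system: HT1080 RFP-PRO-GFP cells. Benchmarks: DMSO vehicle wells and RFP-L50D-GFP reporter cell wells. Times: overnight cell settling, then overnight compound exposure, 37 °C, 5% CO2. Compound: 20 µM single dose, 1% DMSO. Read-out basis: GFP/RFP fluorescence ratio.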
# Env fusion inh – inhibitors of HIV-1 Env-driven cell-cell fusion, primary screen, HeLa-JRFL effector, CEM21 target cells, luciferase; inhibition, % at 12.3 µM; hit rate 1.1% among 360,000; AID 651610, 2012;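 active = mean replicate inhibition score of at least 50 and every replicate individually at or above 50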;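 note: 0% = plate neutral controls and 100% = maraviroc near 300 nM; one replicate is shown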
# PABP polyA inh – PABP poly(A) RNA binding inhibitors, primary screen, biochemical, fluorescence polarization, uHTS. Polyadenylate-binding protein 1 (Homo sapiens), P11940. inhibition, % at 35 µM. hit rate 1% among 290,000. AID 2014, 2009;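 active = 50% or more with normal probe brightness, or confirmed in later tests; about a fifth of its hits are not listed in these tables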;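 note: calls also rest on retests at 20 µM and on dose response follow-up; controls were probe without protein and protein plus probe with vehicle; some compounds called inactive have numbers as strong as hits; many hits fall short of the cut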
# Target sequence (P11940 whole entry, looked up): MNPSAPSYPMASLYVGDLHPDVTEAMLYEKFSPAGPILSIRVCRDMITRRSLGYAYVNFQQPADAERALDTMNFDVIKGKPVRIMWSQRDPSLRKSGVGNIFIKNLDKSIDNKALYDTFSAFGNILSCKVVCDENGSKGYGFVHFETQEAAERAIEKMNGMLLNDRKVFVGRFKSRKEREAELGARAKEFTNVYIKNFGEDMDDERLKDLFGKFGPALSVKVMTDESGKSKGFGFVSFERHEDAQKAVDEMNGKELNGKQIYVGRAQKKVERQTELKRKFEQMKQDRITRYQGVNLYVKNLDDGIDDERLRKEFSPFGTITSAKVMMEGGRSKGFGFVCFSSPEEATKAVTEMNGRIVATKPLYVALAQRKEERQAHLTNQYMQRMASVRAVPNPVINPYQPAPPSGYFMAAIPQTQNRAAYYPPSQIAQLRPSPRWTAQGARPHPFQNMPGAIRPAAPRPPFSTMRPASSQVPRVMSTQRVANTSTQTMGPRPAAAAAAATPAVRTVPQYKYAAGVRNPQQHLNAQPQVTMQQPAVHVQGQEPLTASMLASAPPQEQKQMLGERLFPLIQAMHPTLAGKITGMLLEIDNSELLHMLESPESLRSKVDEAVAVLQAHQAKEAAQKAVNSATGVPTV
# Yeast UUG start – modulators of yeast start codon fidelity, primary screen, whole organism, S. cerevisiae, single point, plate reader. S. cerevisiae UUG-firefly luciferase reporter, luminescence/redox ratio. activity score, % at 18.7 µM. hit rate 0.13% among 350,000. AID 602363, 2012;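 active = replicate mean at a twofold rise or more, about +100% in these data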;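 note: firefly luciferase made from a UUG start codon reports start codon fidelity; reporter light over untreated wells divided by growth signal over untreated wells; some hits fall short of that in this replicate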
# Rce1 inh – yeast Rce1p protease inhibitors, primary screen, biochemical, fluorescence, cell-free homogeneous. AID 2563, 2010. hit rate 0.27% among 290,000. calls only. yeast membranes, quenched prenylated peptide cleavage fluorescence. CAAX prenyl protease 2 (Saccharomyces cerevisiae (strain ATCC 204508 / S288c)), Q03530;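 active = fall in fluorescence gain of 50% or more versus controls, with final raw signal at or below 3038400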;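 note: plate controls were neutral control wells for no effect and wells lacking membranes for full effect; tested at 10 µM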
# MT1-MMP act inh RFP – further read-out of MT1-MMP act inh, marked with its call; RFP signal change, %; measured here: RFP expression control read;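 0 = vehicle wells; hits needed this value within 50% of zero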
# The depositor's hits bear a star; i = inactive; / = no result given; + = active, no number.
# Order of results – Rce1 inh, MT1-MMP act inh, MT1-MMP act inh RFP, Yeast UUG start, PABP polyA inh, Env fusion inh, CSC inhib, eIF4H inh
- Cc1ccc(S(=O)(=O)N2CCC(C(=O)NCc3ccncc3)CC2)cc1
  i, -4, -1, -21, -1, -68, -3, 7
- CC(=O)Nc1ccc(OCc2cccc([N+](=O)[O-])c2)cc1
  i, 1, -1, /, 0, 4, /, -3
- COc1ccccc1CNC(=O)CCCc1nnc2n(C)c(=O)c3sccc3n12
  i, 1, 2, -7, 9, -6, -5, -4
- Cc1cccc(NC(c2ccc(C)s2)c2ccc3ccc(C)nc3c2O)n1 (centres undefined)
  i, 2, -3, -19, 2, -30, /, 0
- CCCCCCN1C[C@@H](O)[C@H](n2cc(C3CC3)nn2)C[C@@H]1c1ccccc1
  /, -3, -6, -21, /, -10, /, /
- COc1ccc(C(=O)Nc2ccc(NC(=O)c3cccc(OC)c3)cn2)cc1
  i, 1, -9, -2, -9, 3, -1, -5
- CCOC(=O)c1cnc(-c2ccccc2O)nc1Cl
  i, -4, 1, /, 1, -48, -3, 4
- CCCCOc1ccc(CC(=O)NCC(=O)O)cc1
  i, -2, 7, 2, -4, 0, -18, 7
- CCC(CC)C(=O)OCC(=O)Nc1cc(OC)c([N+](=O)[O-])cc1C
  i, 3, 1, /, -6, 9, -3, -12
- O=C(c1cccs1)N1CCC(c2ccccc2)C1 (centres undefined)
  i, -1, 4, /, 2, -163, 4, 2
- O=C(O)C1CCCN1S(=O)(=O)c1ccc2[nH]c(=O)c(=O)[nH]c2c1 (centres undefined)
  i, 6, -1, -21, 10, -30, /, -1
- CCc1ccc(Nc2ncc3c(n2)CC(C)(C)CC3=O)cc1
  i, -1, -5, /, -6, -52, 34, -6
- COc1cc(CN2CCSCC2)cc(OC)c1OC
  i, 5, 0, /, 17, -34, -17, 14
- CCN(CC)C(=O)[C@H]1CC(CC(=O)NC/C=C(\C)CCC=C(C)C)C(=O)N2CCc3c([nH]c4ccccc34)[C@]12C (some centres undefined)
  /, -12, -11, -20, /, -41, /, /
- Cc1cc(C)n(CCC(=O)Nc2ccc3c(c2)OCCO3)n1
  i, 1, 2, -23, 16, 8, 4, 5
- Cc1ccc(NS(=O)(=O)c2ccc3c(c2)c(=O)n(C)c(=O)n3C)cc1F
  i, -10, -8, -16, -2, -17, 20, 0
- C/C(N)=C(/C#N)C(=O)CSc1nnc(-c2ccccc2)n1C
  i, 2, 0, 6, -6, -5, -5, 2
- COC(=O)c1ccc(NC(=O)CNC(=O)C2CCCCC2)c(C)c1
  i, 6, 8, -6, 8, -33, -18, 0
- COc1ccc(OC)c(NC(=O)Nc2nc(CN)cs2)c1
  /, 9, -4, -8, /, -5, /, /
- CC1CCCC(C)N1C(=O)c1cc(F)c(F)cc1Cl (centres undefined)
  i, 1, -1, -16, -6, -9, /, -14
- Cc1ccc(S(=O)(=O)NCC(=O)NCC(=O)OCC(=O)NC(=O)NC(C)(C)C)cc1C
  i, 1, 2, /, -7, -6, -4, -5
- O=C(CSc1cccs1)Nc1ccc(Cl)cc1
  i, -1, -2, /, 8, -42, 21, 2
- O=C(Nc1ccccc1N1CCOCC1)c1ccc(N2CCCC2=O)cc1
  /, -4, -2, -12, /, -2, /, /
- Cc1nnc(NC(=O)C2=COCCO2)s1
  i, -1, 3, -17, /, 5, 10, /
- CSc1ccc(CNC(=O)Cc2ccc(NC(=O)C3=C(C)OCCS3)cc2)cc1
  i, -2, -11, -19, 4, -380, 54, 13
- NC(=O)COC(=O)c1ccccc1Nc1ccc(SC(F)F)cc1
  i, 6, -1, -12, -1, -39, 44, -2
- COc1cc(/C=N\N=C2/SC(CC(=O)O)C(=O)N2c2ccc(O)cc2)ccc1O (centres undefined)
  /, 3, 2, /, -2, /, 0, 6
- COCCn1cc(C(=O)NCc2ccco2)c2c3ccccc3n(C)c2c1=O
  i, 5, 0, /, -17, -4, 6, -4
- COc1cccc(C2C(=O)c3ccccc3C2=O)c1
  i, 1, 3, 4, -4, 26, 9, -5
- CCN(C(=O)COC(=O)/C(C#N)=C/c1ccc(N(C)C)cc1)C1CCS(=O)(=O)C1 (centres undefined)
  /, -11, -1, -19, /, -11, -18, /

# Rewritten field by field: four of the compounds above
> COc1ccc(OC)c(NC(=O)Nc2nc(CN)cs2)c1
- Rce1 inh: /
- MT1-MMP act inh: 9
- MT1-MMP act inh RFP: -4
- Yeast UUG start: -8
- PABP polyA inh: /
- Env fusion inh: -5
- CSC inhib: /
- eIF4H inh: /
> Cc1ccc(S(=O)(=O)NCC(=O)NCC(=O)OCC(=O)NC(=O)NC(C)(C)C)cc1C
- Rce1 inh: i
- MT1-MMP act inh: 1
- MT1-MMP act inh RFP: 2
- Yeast UUG start: /
- PABP polyA inh: -7
- Env fusion inh: -6
- CSC inhib: -4
- eIF4H inh: -5
> COc1ccc(C(=O)Nc2ccc(NC(=O)c3cccc(OC)c3)cn2)cc1
- Rce1 inh: i
- MT1-MMP act inh: 1
- MT1-MMP act inh RFP: -9
- Yeast UUG start: -2
- PABP polyA inh: -9
- Env fusion inh: 3
- CSC inhib: -1
- eIF4H inh: -5
> CCOC(=O)c1cnc(-c2ccccc2O)nc1Cl
- Rce1 inh: i
- MT1-MMP act inh: -4
- MT1-MMP act inh RFP: 1
- Yeast UUG start: /
- PABP polyA inh: 1
- Env fusion inh: -48
- CSC inhib: -3
- eIF4H inh: 4

# Going on with the list:
# Order of results – Rce1 inh, MT1-MMP act inh, MT1-MMP act inh RFP, Yeast UUG start, PABP polyA inh, Env fusion inh, CSC inhib, eIF4H inh
- Cc1nn(-c2ccccc2)c(C)c1/C=N/n1c(-c2ccncc2)n[nH]c1=S
  i, -4, -1, /, 2, 17, 27, 3
- CC(=O)N1CC(C)Sc2ccc(S(=O)(=O)NC3CCCCC3)cc21 (centres undefined)
  i, 0, -18, 6, -9, 1, -19, -6
- CC(=O)C1=C(O)C(=O)N(c2ccc(O)cc2)C1c1ccc(C)cc1 (centres undefined)
  i, 5, -1, -11, 0, 6, -22, -4
- O=C(CCC(=O)c1cccs1)NCc1ccc(Cl)cc1
  i, 2, 5, -13, 15, /, -2, -12
- OC(CNCCc1ccc(C(F)(F)F)cc1)COC(c1ccccc1)c1ccccc1 (centres undefined)
  i, 1, -2, -12, -13, 32, 107*, -3
- CCCCCCCCCCOC(=O)Cn1c(COc2cccc(OC)c2)[n+](C)c2ccccc21
  +, -7, -28, -40, 16, /, 104*, 14
- COc1ccc(NC(=O)c2ccc(F)cc2)cc1S(=O)(=O)Nc1cc(C)ccc1Br
  i, 5, -18, /, -7, -50, 51, -6
- CC1=CC2=NC(=O)CC(C)(C(=O)N(CC(=O)NC3CCCC3)c3cc(C)cc(C)c3)N2C=C1 (centres undefined)
  i, -4, 4, /, 2, -6, -1, 2
- Cc1nn(CC(=O)NCc2ccco2)c(C)c1[N+](=O)[O-]
  i, -2, -1, 1, 2, -2, -16, 5
- COc1cc(OC)cc(-c2c(-c3cccs3)c3cc(-c4cnc(OC)nc4)ccc3n2C)c1
  /, -2, -6, 4, /, 19, 7, /
- Cc1nn(-c2ccccc2)nc1-c1nnc(-c2ccc(C(F)(F)F)cc2)o1
  i, 1, 2, -7, -3, -18, 2, -9
- O=C(Nc1ccccc1)c1ccc2ccccc2n1
  i, -5, -4, -23, -4, -99, -4, 6
- CS(=O)(=O)N1CCc2cc(C(=O)N3CCOCC3)ccc21
  i, 0, 3, -8, 7, /, -9, -5
- CCOC(=O)c1nn(-c2ccc3c(c2)OCO3)cc1O
  i, 3, 6, /, /, /, -10, /
- Cc1cc(NC(=O)CN2CCN(C/C=C/c3ccccc3)CC2)c([N+](=O)[O-])cc1C
  i, -4, -6, -16, 0, -6, 33, -2
- Cc1noc(C)c1C(=O)OCC(=O)NC(=O)NC12CC3CC(CC(C3)C1)C2
  /, -3, 3, -13, -3, -15, 1, -3
- O=[N+]([O-])c1ccccc1NC1CCN(Cc2ccccc2)CC1
  i, 6, -2, /, -7, -16, 29, 2
- COc1ccc(OC(=O)/C=C/c2ccc([N+](=O)[O-])cc2)cc1
  i, 4, 4, -3, 14, -3, 12, -4
- CCN(CC)c1ccc(CNC23CN4CN(CN(C4)C2)C3)cc1
  i, 3, 0, -2, -3, -90, -14, 7
- Cc1cnc(C(=O)NC(Cc2ccccc2)c2ccccc2)cn1 (centres undefined)
  i, -1, 1, 1, 1, -5, 1, -18
- O=C1/C(=C/c2cccs2)Cc2ccccc21
  i, -7, 9, -10, -6, -9, -8, -19
- COc1ccccc1C(=O)N1CCN(S(=O)(=O)c2ccccc2)CC1
  i, 4, 3, -12, 3, /, -3, 4
- O=C(Nc1cccc(Cl)c1)N1CCCCCC1
  i, 3, 0, -7, 11, -12, -13, 2
- O=S(=O)(Nc1cccc(Oc2ccc(Cl)cc2)n1)c1ccc(F)cc1
  i, 2, 3, 2, 3, /, 13, 1
- CCOc1cc(N2CCOCC2)c(OCC)cc1NC(=O)CN1CCc2ccccc2C1
  i, 0, 1, /, 27, /, 57, 8
- O=C1c2ccccc2C(=O)C12OC2c1ccc(Cl)cc1 (centres undefined)
  i, /, /, /, 6, /, 15, 1
- COc1ccc(OC)c(NC(=O)CSc2nnc(-c3ccncc3)s2)c1
  i, 1, -6, -17, 6, /, -1, -4
- COc1cc2c(C(=O)O)c(C)n(CC(C)C)c2c2ccccc12
  i, -7, -3, /, 5, /, /, 10
- CCc1ccc2oc(-c3ccc(OC)cc3)cc(=Nc3cccc(C(=O)O)c3)c2c1
  i, 5, 4, -41, -14, -104, 6, 1
- CCCCNC(=O)Cn1nnc(-c2ccccc2)c1COc1ccc(C(C)=O)cc1
  /, -2, 6, -5, /, 34, /, /
- Cn1c(N)c(C(=O)/C=C/c2ccccc2)c(=O)[nH]c1=O
  i, 2, 5, /, 16, -36, -4, 5
- COc1ccc(CCCc2nnc(SCC(=O)Nc3cccc(C)c3)o2)cc1
  i, 4, -2, 0, -8, 12, -6, -4
- C=CC[C@@H](CC(=O)N[C@H](CO)Cc1ccccc1)C(=O)N[C@H](COC(=O)[C@H](CC=C)CC(=O)OC(C)(C)C)Cc1c[nH]c2ccccc12
  /, 3, -3, -10, /, -53, /, /
- CCC(C)NC(=O)CCn1c(-c2ccccc2)cc(C(C)=O)c1C (centres undefined)
  i, 0, 0, /, 2, -21, -12, -6
- Cn1cc(P(=O)(N2CCOCC2)N2CCOCC2)cc1P(=S)(N1CCOCC1)N1CCOCC1
  i, 3, 1, /, 16, -12, -11, 27
- CCCc1cc(=O)[nH]c(SCCOC(=O)c2ccccc2)n1
  i, 5, 4, /, -9, -78, 1, 10
